Bfl-1 A1 inh – inhibitors of the anti-apoptotic protein A1, read as caspase activation; MEF A1-2A-BIM cells, Caspase-Glo 3/7 luminescence, 3 h; percent of clofoctol response, vehicle zero; caspase activation, % (test concentration not listed); 330,000 compounds, 0.066% hits; AID 2462;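 active = over half of replicate activation scores above 10%, or exactly half above 10 with the replicate mean above 10; inconclusive = replicate mean below 10 yet half the replicates above 10; inactive = over half of replicates below 10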;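 note: wells of about 30 µL received 50 nL stock; many hits fall short of the cut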
Beta apoptosis – blocks beta cell apoptosis; INS-1E cytokine-induced death, ATP luminescence, 48 h; percent of positive-control rescue, neutral wells zero; protection from apoptosis, % (test concentration not listed); 300,000 compounds, 0.8% hits;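 active = all replicates at 75% or more, or half of them and the mean; inconclusive = half reach 75% but not the mean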;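 note: 0% = cytokine-treated negative control wells and 100% = positive control rescue; higher means more ATP so stronger rescue from cytokine killing; wells of about 40 µL received 100 nL stock; the first replicate is given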
MLL AF4-AF9 inh – MLL-AF4/AF9 protein interaction inhibition. P42568. AlphaScreen, biotin-AF4 peptide binding to FLAG-AF9. inhibition, % at 10 µM. 350,000 compounds, 0.47% hits. AID 651704;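 active = every replicate reaching a set inhibition limit, whatever the replicate mean, cut at about 25% in these data; inconclusive = mean inhibition reaches that limit but some replicates miss it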;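 note: 0% = plate neutral control median and 100% = total signal loss; the record names both 10 and 1 µM as test concentration; the first replicate is given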
FGF22 binding – shifts melting point of recombinant human FGF22. Q9HCT0. recombinant FGF22 thermal shift, SYPRO orange fluorescence; percent of sucrose octasulfate shift, DMSO zero. calls only at 9.99 µM. 340,000 compounds, 1.5% hits;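 active = melting point raised past a set limit in the mean and every replicate; inconclusive = no clear call; three in four hits are not shown here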
Target sequence (Q9HCT0 whole entry, looked up): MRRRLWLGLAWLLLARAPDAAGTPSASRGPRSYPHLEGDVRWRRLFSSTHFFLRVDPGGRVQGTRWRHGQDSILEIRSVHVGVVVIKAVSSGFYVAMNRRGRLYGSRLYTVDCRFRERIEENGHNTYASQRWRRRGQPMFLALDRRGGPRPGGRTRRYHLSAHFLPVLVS
T cruzi inh – blocks replication of Trypanosoma cruzi. 300,000 compounds, 1.4% hits. inhibition, % (test concentration not listed). T. cruzi beta-gal in NIH3T3, luminescence, 90 h;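 active = mean inhibition across valid replicates above about 55%, limit read from the data; inconclusive = mean below that limit but half or more replicates reach it; inactive = mean below it, under half of replicates reach it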;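 note: signal also drops with host cell toxicity which is not excluded here; 0% = plate median of DMSO wells and 100% = zero luminescence signal; higher percent means less beta-gal luminescence so fewer parasites; stock transfer was 50 nL into about 50 µL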
UCH37 DUB inh – blocks the human deubiquitinase UCH37 | purified proteasome/UCH37, Ub-AMC cleavage fluorescence | inhibition, % (no concentration beside the values) | 330,000 compounds, 0.33% hits | AID 588478;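 active = mean of two replicates above 20%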;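 note: 0% = compound-free wells with enzyme and 100% = wells lacking proteasome; stock transfer was 100 nL into about 20 µL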
Target sequence (Q9Y5K5 whole entry, looked up): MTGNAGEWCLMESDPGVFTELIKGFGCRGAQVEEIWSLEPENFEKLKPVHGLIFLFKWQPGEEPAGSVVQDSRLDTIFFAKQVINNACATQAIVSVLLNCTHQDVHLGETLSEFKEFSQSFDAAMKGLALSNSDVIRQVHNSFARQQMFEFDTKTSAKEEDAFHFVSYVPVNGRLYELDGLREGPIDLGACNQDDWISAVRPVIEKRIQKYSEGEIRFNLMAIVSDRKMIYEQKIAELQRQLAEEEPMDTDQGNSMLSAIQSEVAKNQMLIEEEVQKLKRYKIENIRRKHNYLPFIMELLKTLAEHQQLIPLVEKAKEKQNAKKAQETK
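Signal – fluorescence, ex 355 nm, em 460 nm · System – Proteasome-bound UCH37 · Input – 0.15 nM proteasome as dispensed · Timing – 30 min preincubation with enzyme, 25 min cleavage at room temperature · Read-out basis – percent inhibition of cleavage signal versus uninhibited and no-proteasome wells · Medium – Tris-HCl pH 7.4 with ATP-MgCl2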
rRNA inh HTS – inhibitors of bacterial rRNA selective over humanized ribosomes. GFP signal change (wild-type ribosome), % (no concentration beside the values). 350,000 compounds, 1.6% hits. AID 720706. E. coli WT GFP vs humanized-ribosome RFP mutants, fluorescence, 24 h; stronger effect = lower value; DMSO median 0, no signal -100;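 active = significant combined selectivity score with lowered wild-type GFP, culture density cut under 30%, mutant RFP and density less affected; inactive = any of these conditions unmet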; note: one replicate is shown; some compounds called inactive have numbers as strong as hits
Ecoli growth – inhibitors of Escherichia coli growth | OD600, 23 h; stronger effect = lower value | OD600 absorbance (concentration not given with the values) | 330,000 compounds, 0.21% hits;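 active = OD600 absorbance below the run mean of sample wells minus 3.6 SD, in any replicate, cut at about 0.56 in these data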;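 note: stock transfer was 300 nL into about 60 µL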
rRNA inh HTS OD600 – recorded beside rRNA inh HTS, whose call it bears; OD600 change, %; measured here: OD600 growth;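 optical density of the mix in the first replicate; 0 = DMSO median and -100 = no signal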
rRNA inh HTS RFP – also measured in rRNA inh HTS; calls as there; RFP signal change, %; measured here: RFP humanized mutant strains;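 first replicate; 0 = DMSO median and -100 = no signal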
* marks the source's active call; other numbers are inactive results; i = inactive; ? = inconclusive; · = not tested or not shown; & = joins results of further samples.

compound	Bfl-1 A1 inh	Beta apoptosis	MLL AF4-AF9 inh	FGF22 binding	T cruzi inh	UCH37 DUB inh	rRNA inh HTS	rRNA inh HTS OD600	rRNA inh HTS RFP	Ecoli growth
Cc1ccc(NC(=O)CCN2CC(C)OC(C)C2)cc1C (centres undefined)	3.7	-2	-0.9	·	-6	0.2	10	10	-2.0	0.72
CN(CC(=O)NCc1ccccc1Cl)CC(=O)Nc1ccccc1Br	-0.4	1	-2.1	i	·	0.4	·	·	·	0.63
COc1ccc(-n2cc(CNC3CCOCC3)c(-c3cccc(F)c3)n2)cc1	1.6	-1	1.7	i	21	3.1	-30*	-24*	-1.7*	0.69
O=C(O)C1=C[C@@H](c2ccc3c(c2)OCO3)C[C@@H](OCCCCO)O1	0.6	-5	-3.7&-7.4	i	-4	2.5	18	21	4.3	·
O=C(N/N=C/c1ccccc1)c1c(O)c2ccccc2[nH]c1=O	-3.0	124*	2.8	i	7	·	-6	18	-0.7	·
O=C(N1CCOCC1)C12CC3CC(C1)CC(c1ccccc1)(C3)C2	-0.2	·	·	·	8	0.5	·	·	·	0.74
Cc1ccc2nc(CSc3nc(C)cc(C)c3C#N)[nH]c2c1	1.3	9	·	·	13	-46	·	·	·	0.65
CC(=O)c1cccc(N(CC(=O)N2CCOCC2)S(C)(=O)=O)c1	0.3	·	·	·	-1	2.4	·	·	·	0.66
Cc1cc(NC(=O)CSc2nc(CCC3CCCC3)nc3ccccc23)no1	-0.6	-6	·	·	-10	4.3	·	·	·	0.74
C=CCC(c1ccccc1F)N(CCN1CCOCC1)C(=O)Nc1cccc(Cl)c1 (centres undefined)	0.3	·	·	·	19	-0.8	·	·	·	0.67
O=S(=O)(c1cccs1)N1CCN(c2ccc(F)cc2)CC1	0.2	-3	0.1	i	10	2.4	-3	-16	1.5	0.65
C=CCn1c(SCC(=O)N2CCCCCC2)nc2ccccc2c1=O	0.7	-1	1.4	i	11	-0.4	-21	-32	-3.2	0.69
CCOC(=O)c1cc(Br)c(=O)n2ccccc12	-0.6	-9	·	·	-1	-34	·	·	·	0.71
CSc1nc2ccc(NS(=O)(=O)c3ccc(CNC(C)=O)cc3)cc2s1	-1.6	4	-5.4	i	·	4.7	1	4	-1.6	0.65
COc1cccc(N2CCN(C(=O)CN(C)S(=O)(=O)c3ccc4c(c3)CCC(=O)N4)CC2)c1	-1.3	·	0.3	i	·	2.2	-4	-14	-0.9	0.71
O=C(O)CSc1cccc[n+]1[O-]	0.3	-11	·	·	-1	0.6	·	·	·	0.67
CCC1COCCS(=O)(=O)N1Cc1ccc(F)cc1 (centres undefined)	0.7	4	-5.9	i	-15	2.9	-5	7	-2.4	0.78
COc1ccc(C(C)NC(=S)NCc2ccc(F)cc2)cc1OC (centres undefined)	0.0	-6	-2.9	i	12	1.8	3	10	2.8	0.71
CCCCn1nc(C(=O)Nc2ccccc2N2CCCC2)c2ccccc2c1=O	-1.2	21	12	i	·	3.6	-2	-1	-1.5	0.68
Cc1ccc(N(C(=O)c2ccccc2Cl)C2=NC(C)CS2)c(C)c1 (centres undefined)	0.4	6	-0.2	i	32	1.5	-13	-9	-2.5	0.68
O=c1cc(CNc2cc(Cl)ccc2Cl)nc2sccn12	-0.3	-2	·	·	-7	4.6	·	·	·	0.65
CC(OCC(O)CNCC1COc2ccccc2O1)c1ccc(Cl)cc1 (centres undefined)	-0.7	-1	1.6	i	19	2.3	-39	-63	-7.5	0.69
COCC(C)n1c(C)cc(C(=O)COC(=O)c2cnc(Cl)c(Cl)c2)c1C (centres undefined)	1.6	-3	12	i	·	-0.3	-31	-43	-6.8	0.64
CN1CCN(C(=O)c2ccc(Cl)cc2)CC1	0.3	·	-4.0	i	4	2.8	·	·	·	0.64
CCOc1cccc(C(=O)NC(=S)Nc2cccc(NC(=O)c3ccccc3Cl)c2)c1	0.1	4	1.6	i	10	6.0	-2	13	0.6	0.78
COc1cc(OC)cc(C(=O)Nc2ccc(NC(=O)c3ccco3)c(Cl)c2)c1	-7.9	6	-9.4	i	15	-23	3	3	-3.1	0.69
C=CCn1c(SCC(=O)Nc2nccs2)nnc1-c1cc2cccc(OC)c2o1	-0.3	2	·	·	-9	-18	·	·	·	0.7
C/C=C(\C)C(=O)Nc1cccc(C2=NOC3(C2)C[C@@H](C(N)=O)N(C(=O)c2ccccc2C(=O)c2ccccc2)C3)c1 (some centres undefined)	-0.6	-7	-12	i	14	-0.1	-9	-7	-5.1	·
N#Cc1c(F)cccc1N1CCN(Cc2ccc3c(c2)OCO3)CC1	0.9	2	-0.8	i	4	-2.6	0	-10	2.7	0.67
CN1CCN(c2nc3c(c(=O)[nH]c(=O)n3C)n2Cc2ccccc2F)CC1	?	-2	·	·	0	1.3	·	·	·	0.67
COc1cc(OC)c(NC(=O)Cc2cccs2)cc1Cl	1.2	·	-6.5	i	-16	6.3	-18	-11	1.1	0.61
CCOc1ccc(C(=O)NCC(=O)OCC(=O)Nc2cccc(S(=O)(=O)N3CCCC3)c2)cc1	1.6	-7	4.5	i	-4	3.5	-6	12	5.2	0.65
O=C(Cc1ccc(Cl)c(Cl)c1)N/N=C/c1cccnc1	0.0	-5	-1.1	i	-2	·	-6	-12	1.2	·
Nc1nccnc1C(=O)OCC(=O)NNC(=O)c1ccccc1	1.5	·	0.2	i	0	i	1	-3	0.0	0.7
O=C1OC(c2ccccc2)=C/C1=C\N1CCOCC1	-0.3	-6	·	·	-13	15	·	·	·	0.65
COc1ccc(CC(C)N2CCN(c3ccccc3)CC2)cc1OC (centres undefined)	1.5	-3	·	·	12	3.0	·	·	·	0.67
Fc1ccccc1CNC(=S)NCc1ccc(Cl)cc1	0.9	3	-3.7	i	4	2.9	-29	-43	-11	0.64
O=C(Nc1nc(-c2ccc(Cl)cc2)cs1)c1cccnc1	1.0	1	·	·	8	-0.4	·	·	·	0.72
O=C(NCc1cccnc1)c1ccccc1NS(=O)(=O)c1ccc(F)cc1F	·	·	-1.3	i	1	0.9	-9	-11	0.2	0.71
COc1ccccc1NC(=O)COC(=O)c1cc([N+](=O)[O-])ccc1N1CCCC1	-0.3	2	7.8	i	·	5.5	-16	-20	5.8	0.72
O=C(Nc1ccc(F)cc1)C(=O)C1C(=O)Nc2ccccc21 (centres undefined)	-5.0	-1	3.5	i	-5	3.9	10	-2	-5.1	0.7
CCC(C)(C)NC(=O)C(c1cccs1)N(C(=O)c1ccn[nH]1)c1ccccc1 (centres undefined)	-0.5	-5	-2.3	i	-10	4.1	12	7	2.7	0.68
COc1ccc(S(=O)(=O)N2CCCCC2)cc1C(=O)Nc1cc(C)on1	0.9	-1	1.5	i	9	3.6	0	7	-0.3	0.67
COc1ccccc1NC(=O)CSc1nnc(NC(=O)c2ccco2)s1	-0.7	3	-0.4	i	-8	4.1	7	4	-4.3	0.67
CN(C)c1ccc(S(=O)(=O)NCC(=O)NCc2ccccc2)cc1[N+](=O)[O-]	0.8	-13	0.8	i	9	3.9	-16	-7	4.8	0.62
CC(=O)C1=C(O)C(=O)N(CCN2CCOCC2)C1c1ccccc1 (centres undefined)	-0.2	-8	·	·	-12	5.5	5	9	-0.6	0.71
Cc1cc(NS(=O)(=O)c2ccc(NC(=O)c3ccc(Cl)cc3Cl)cc2)no1	0.4	2	-4.2	i	-6	3.3	-5	-5	-0.2	0.65
c1coc(Cn2c(SCc3nc4ccccc4[nH]3)nnc2-c2cccs2)c1	-0.5	-2	·	·	-13	0.1	·	·	·	0.72
O=C(CN(CC1CCCO1)C(=O)CNS(=O)(=O)c1ccc(Cl)cc1)NC1CCCCC1 (centres undefined)	-0.3	-9	-3.6	i	17	3.2	0	-2	2.8	0.67
COc1ccc(C(C)=O)cc1CN1C(=O)C(C)N(c2ccc(C)cc2)C1=O (centres undefined)	0.7	-3	·	·	-4	0.8	·	·	·	0.65
Cc1ccc(NC(=O)COC(=O)CCC(=O)c2cccs2)cc1C	0.8	-5	-1.0	i	-9	4.9	-10	8	2.6	0.71
CCC(=O)NC(=S)Nc1ccccc1OC	0.5	3	·	·	-6	2.1	·	·	·	0.79
O=C(COC(=O)c1cnccn1)c1ccc([N+](=O)[O-])cc1	-0.8	-2	-3.2	i	7	2.8	9	12	-0.6	0.65
Cc1cc([N+](=O)[O-])nn1Cc1ccccc1F	0.5	-9	·	·	3	5.0	·	·	·	0.71
Cc1cc(C)c(OCCCCN2CCC(C)CC2)c(Br)c1	0.6	10	4.3	i	30	6.5	-16	-26	3.5	0.64
c1ccc(OCCCn2nnc(-c3cccnc3)n2)cc1	0.5	-4	0.8	i	-14	0.6	-9	-10	0.5	0.71
O=[N+]([O-])c1ccc(CSC2=NCCN2)cc1	0.4	·	-8.8	i	15	8.1	2	6	-2.7	0.69
COC(=O)C1CCN(C(=O)c2ccc(OC3CCN(Cc4ccccn4)CC3)cc2)CC1	0.4	-4	-0.7	i	-10	3.3	16	15	-2.9	0.68

From PubChem

The list is partial; the hit share may differ from the screen's.
